# Screening results deposited in PubChem BioAssay by National Center for Advancing Translational Sciences (NCATS).
# gsp ag = activates gsp, the McCune-Albright syndrome mutation | gsp mutant cells, cAMP HTRF, 30 min; control for the full effect not named in the record | Potency, µM (highest dose often 76.9 µM), for inactives: at the top dose activation (cAMP increase), actives largely listed as activators | actives 0.13% (n = 340,000); active = well fitted activation curve with a large enough effect; inconclusive = small, poorly fitted or top-dose-only effect, or another doubt; inactive = no such curve, though single readings can be large or run the other way; cell line not stated here;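 further: phosphodiesterase inhibitor Ro 20-1724 added with compounds to block cAMP breakdown; potency means the concentration at half of the fitted maximal effect; nearly all actives have a fitted effect of over 60% in size; about a fifth of the inactives were tested at one dose only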
#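 Cells in DMEM/10% FBS with G418 were pretreated with compounds in DMSO plus […] (300 uM stock) for 30 min at 37C. cAMP was measured by HTRF (cAMP-d2 plus anti-cAMP antibody-K) after 30 min at room temperature.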
# Sfp PPTase inh = blocks B. subtilis Sfp PPTase activity | Q9F4F7 | Biochemical Sfp PPTase activity, qHTS | Potency, µM, for inactives: max response, negative = inhibition, most hits filed as inhibitors | actives 3.5% (n = 310,000); active means well fitted inhibition curve with a large enough effect; inconclusive means small, poorly fitted or top-dose-only effect, or another doubt; inactive means no such curve, though single readings can be large or run the other way;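 further: the enzyme is Sfp with the accession as filed and its product quenches rhodamine fluorescence; potency means the concentration at half of the fitted maximal effect; 0% = enzyme reaction without inhibitor and -100% = no enzyme wells; top concentration of the series not given in the record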
#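 Step 1, compound plus 15 nM Sfp-PPTase, 15 min, room temperature. Step 2, add rhodamine-CoA (5 uM) and BHQ-2-YbbR (12.5 uM). Step 3, read 525/598 nm fluorescence at 0 and 30 min.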
# TRPML1 blocker = blocks the human TRPML1 channel. TRPML1-inducible cells, Ca2+ dye fluorescence, FDSS; hits give low values; inhibition of EC80 agonist-evoked calcium signal. AID 624415. activity change, negative = inhibition, % (concentration not given with the values). actives 0.02% (n = 390,000); in the data active means activity change below about -50%; inconclusive means about -30% to -50%; inactive means above about -30%;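 further: stimulus is agonist 54-4 at its EC80 concentration; on the % scale 0 is the no-effect control and ±100 the full control effect; compound concentration not given in the record; the text of the record puts the active cut at -80%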
#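 Tet-induced TRPML1-DL cells loaded with Ca8 no-wash calcium dye were read kinetically on FDSS. Compound addition was followed by EC80 agonist 54-4 (4 uM final); inhibition was read over 110 s.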
# ClpP mod = qHTS Assay for Activators of ClpP; purified B. subtilis ClpP, FRET peptide cleavage, 20 min; Potency, µM (titrated, usually from 57.5 µM), inactives show at the top dose activity change, negative = active; AID 651965, 2013; actives 1.9% (n = 340,000); active = well fitted falling curve with a large enough effect; inconclusive = small, poorly fitted or top-dose-only effect; inactive = no such curve, though single readings can be large or run the other way; further: potency means the concentration at half of the fitted maximal effect; the source files actives as falling curves though it sought activators and does not explain the sign; nearly all actives have a fitted effect of over 65% in size; many hits overshoot -100%
#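 Buffer: 100 mM Tris/HCl pH8, 100 mM KCl, 0.05% low protease BSA, 2.5% glycerol, 0.01% Tween-20. ClpP 10 microg/mL final; 20 min RT; delta FRET normalized to ADEP and DMSO controls.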
# TRPV1 potentiator = potentiators of human vanilloid receptor 1 (TRPV1) | TRPV1-expressing cells, Fluo-8 calcium influx, capsaicin EC20 potentiation; host cell line not named in the record; control for the full effect not named in the record | potentiation, % at 8.33 µM | actives 0.02% (n = 320,000); active means potentiation above 80%; inconclusive means 30% to 80%; inactive means below 30%; further: 0% is about no effect
# Target sequence (Q8NER1 whole entry, looked up): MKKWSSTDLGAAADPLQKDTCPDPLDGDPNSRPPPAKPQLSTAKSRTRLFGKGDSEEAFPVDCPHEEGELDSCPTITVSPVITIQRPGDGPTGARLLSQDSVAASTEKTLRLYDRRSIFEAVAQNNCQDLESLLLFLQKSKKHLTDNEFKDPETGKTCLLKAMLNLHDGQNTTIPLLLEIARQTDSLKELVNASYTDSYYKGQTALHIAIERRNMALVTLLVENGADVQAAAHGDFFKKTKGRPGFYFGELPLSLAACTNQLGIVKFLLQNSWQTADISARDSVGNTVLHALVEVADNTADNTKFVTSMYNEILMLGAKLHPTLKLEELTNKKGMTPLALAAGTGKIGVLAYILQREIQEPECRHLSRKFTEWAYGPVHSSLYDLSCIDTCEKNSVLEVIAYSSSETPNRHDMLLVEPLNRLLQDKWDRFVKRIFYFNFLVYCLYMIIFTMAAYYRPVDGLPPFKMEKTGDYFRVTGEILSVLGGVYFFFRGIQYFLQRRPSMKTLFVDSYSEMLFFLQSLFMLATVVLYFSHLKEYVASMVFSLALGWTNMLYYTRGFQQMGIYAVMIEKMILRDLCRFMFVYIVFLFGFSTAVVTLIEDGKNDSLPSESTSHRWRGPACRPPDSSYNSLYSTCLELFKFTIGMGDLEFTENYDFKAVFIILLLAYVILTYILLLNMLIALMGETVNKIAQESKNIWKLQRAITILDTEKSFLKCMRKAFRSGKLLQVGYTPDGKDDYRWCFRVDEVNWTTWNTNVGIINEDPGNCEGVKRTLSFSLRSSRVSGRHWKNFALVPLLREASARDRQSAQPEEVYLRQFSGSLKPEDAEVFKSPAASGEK
#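 Cells expressing TRPV1 were dye-loaded with Fluo-8 and read kinetically: 10 s baseline, 3 min after compound (agonist portion), then 2 min after EC20 capsaicin (allosteric enhancer portion). Calcium-bound dye fluorescence at 480/520 nm.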
# gsp antag = gsp mutant antagonism; Potency, µM (top dose mostly 76.9 µM), inactives show at the highest dose activity change, negative = inhibition, actives largely listed as inhibitors; gsp-mutant cells, cAMP HTRF, 30 min; control for the full effect not named in the record; actives 0.4% (n = 340,000); active = falling curve of any shape with a large fitted effect; inconclusive = falling curve, mostly with a smaller effect; inactive = flat or rising curve; cell line not stated here;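 further: intracellular cAMP measured with PDE inhibitor Ro 20-1724 present during compound exposure; potency means the concentration at half of the fitted maximal effect; on the % scale 0 is the no-effect control and ±100 the full control effect; nearly all actives have a fitted effect of over 65% in size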
#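 G418-selected cells were plated in DMEM/10% FBS for 16-24 h at 37C, then treated with compounds plus the PDE inhibitor […] (300 uM solution added) for 30 min at 37C. Intracellular cAMP was measured by HTRF after 30 min lysis at room temperature.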
# Menin MLL FP FL = inhibitors of human menin-MLL interaction, wild-type MLL peptide. Fluorescence polarization, fluorescein-MLL peptide displacement from menin. FP activity change, % at 61.4 µM. 290,000 tested, under 10 active. AID 1766; inconclusive = falling polarisation curve, or a change in total fluorescence; inactive = total fluorescence flat and polarisation flat or rising; no compound was filed as active; the % refers to the polarisation; negative = inhibition;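 further: % of control where 0% means no effect; inhibitors lower the polarisation; unlabelled MLL peptide was the positive control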
# The depositor's hits bear a star; ? = inconclusive; · = not tested or not shown; [ ] = another dose, or the depositor's remark.
SMILES,gsp ag,Sfp PPTase inh,TRPML1 blocker,ClpP mod,TRPV1 potentiator,gsp antag,Menin MLL FP FL
COc1ccc2c(c1OC)C(=O)OC2N1C(=O)CC[C@H]1C(=O)Nc1ccc(F)cc1F (stereo partly drawn),·,15.4%,·,-28.0%,11.6,3.8%,0.0
O=C(NCCc1ccccc1)Nc1ccc2c(c1)OCO2,-21.0%,8.6%,17.5,0.8%,-20.5,-24.7%,-0.8
Cc1nc2ccccc2c(=O)n1NC(=O)C1CC1C (stereo not drawn),-22.2%,-5.4%,-2.1,0.3%,-7.2,5.9%,-0.6
CCN(CC)S(=O)(=O)c1ccc(OC)c(NC(=O)c2ccc3c(c2)OCO3)c1,26.4%[15.4 µM],-5.9%,49.7,·,-6.3,-15.2%,-3.3
O=C1N/C(=N/N=C/c2ccccc2)SC1(c1ccccc1)c1ccccc1,-36.1%[inhibitor],-9.2%,-1.9,-17.9%,17.3,5.4%,-0.5
CC(=O)c1cccc(NC(=O)COC(=O)Cc2ccc(Cl)cc2)c1,4.7%,·,-8.5,-1.3%,0.9,-4.2%,·
O=C1CCc2cc(S(=O)(=O)NC(C(=O)NCc3cccnc3)c3ccccc3)ccc2N1 (stereo not drawn),13.7%,9.3%,-13.6,0.3%,28.0,4.0%,-0.9
CN(C)/C=C(\C=O)c1c(Cl)cccc1Cl,-3.2%,3.1%,11.2,-1.0%,6.1,17.0%,-1.5
COc1ccccc1N(C)S(=O)(=O)c1ccc(C(=O)OCC(=O)N2CCCCCC2)cc1,-8.6%[15.4 µM],17.7%,-4.6,·,0.7,·,5.8
CCn1cc(C(=O)N2CCCCC2)c(=O)c2cc(S(=O)(=O)N3CCC(C)CC3)ccc21,9.7%,-2.1%,13.7,-5.0%,6.6,-13.2%,2.6
Cc1c(C(=O)NCC(c2ccco2)N2CCCC2)oc2ccc(Cl)cc12 (stereo not drawn),2.8%,-0.3%,3.1,-2.7%,6.3,3.2%,-4.4
CC(C)CN(C(=O)CN1CCN(c2ccccc2F)CC1)c1c(N)n(CC(C)C)c(=O)[nH]c1=O,22.6%,3.0%,4.6,-1.9%,-45.5,4.4%,7.6
O=[N+]([O-])c1ccc2c(c1)nc1n2CCN(c2ccccc2)C1,-0.8%,-8.8%,·,0.7%,-0.7,-6.9%,2.4
CC(C)(C)NS(=O)(=O)c1ccc(Oc2ncc(C(F)(F)F)cc2Cl)cc1,13.6%,25.1µM*,70.5,-0.6%,?,-13.9%,1.5
Cc1cc[n+](Cc2ccccc2)c(N)c1,12.2%,·,-13.0,3.9%,0.2,9.1%,·
Cc1cc(C)n(-c2cc(C(C)(C)C)nc3c(-c4ccccc4)cnn23)n1,7.5%[15.4 µM],4.9%,?,·,-20.1,-27.3%,2.9
O=C(OCCOc1ccc(Br)cc1)c1ccc(Cl)nc1,24.8%,-2.4%,-1.6,-1.5%,0.7,-0.2%,2.7
Cc1cc(-c2ccccc2)nc(N(C)NC(=O)c2c(F)cccc2F)c1S(C)(=O)=O,17.4%,7.7%,10.0,1.5%,-4.4,-13.7%,0.8
CCC(NC(=O)COc1cc2c(c3oc(=O)c(C)c(C)c13)CCC(C)(C)O2)C(=O)O (stereo not drawn),6.4%,15.6%,34.6,·,7.5,-3.9%,4.8
CCC1(c2ccc(F)cc2)NC(=O)N(CC(=O)Nc2ccc(C)c(S(=O)(=O)N3CCOCC3)c2)C1=O (stereo not drawn),10.0%[15.4 µM],15.5%,26.4,·,-4.7,-10.8%,-5.6
O=S(=O)(c1ccc(Br)s1)N1CCCCC1,-2.2%,-2.2%,8.1,0.7%,22.1,5.0%,4.6
CC(=O)c1ccc(-c2ccc(C(=O)NC3CC(C)(C)NC(C)(C)C3)o2)cc1,?,·,-0.1,-37.9%,15.9,14.2%,·
CC1(C)CN=C(c2ccccc2)NC1,-2.3%,·,17.7,·,·,-1.9%,·
COCCN1C(=O)c2ccc(C(=O)NCc3ccco3)cc2C1=O,7.2%,12.0%,-1.4,-0.7%,-13.3,-1.2%,·
CCC(Sc1nc(-c2ccccc2)c(C#N)c(=O)[nH]1)C(=O)Nc1nnc(C)s1 (stereo not drawn),?,16.3%,-8.5,-9.5%,0.1,3.3%,-1.5
CCOC(=O)c1noc(C)c1C(=O)Nc1cccc(F)c1,0.0%,8.4%,-9.5,-10.2%,7.4,-10.6%,0.1
CC(=O)Nc1ccc(NS(=O)(=O)c2ccc3[nH]c(=O)[nH]c3c2)cc1,12.8%,10.1%,3.5,·,0.9,8.4%,0.4
CCOc1ccccc1OCCCC(=O)Nc1cccc(S(=O)(=O)N2CCOCC2)c1,-71.1%[inhibitor],·,21.5,0.1%,4.7,0.1%,·

# Part of the list above, with values under each structure.
# Results follow in this order: gsp ag | Sfp PPTase inh | TRPML1 blocker | ClpP mod | TRPV1 potentiator | gsp antag | Menin MLL FP FL
- Cc1c(C(=O)NCC(c2ccco2)N2CCCC2)oc2ccc(Cl)cc12 (stereo not drawn)
 : 2.8% | -0.3% | 3.1 | -2.7% | 6.3 | 3.2% | -4.4
- CCN(CC)S(=O)(=O)c1ccc(OC)c(NC(=O)c2ccc3c(c2)OCO3)c1
 : 26.4%[15.4 µM] | -5.9% | 49.7 | · | -6.3 | -15.2% | -3.3

# Among those listed so far, these contain an NH in an aromatic ring.
SMILES,gsp ag,Sfp PPTase inh,TRPML1 blocker,ClpP mod,TRPV1 potentiator,gsp antag,Menin MLL FP FL
CC(C)CN(C(=O)CN1CCN(c2ccccc2F)CC1)c1c(N)n(CC(C)C)c(=O)[nH]c1=O,22.6%,3.0%,4.6,-1.9%,-45.5,4.4%,7.6
CCC(Sc1nc(-c2ccccc2)c(C#N)c(=O)[nH]1)C(=O)Nc1nnc(C)s1 (stereo not drawn),?,16.3%,-8.5,-9.5%,0.1,3.3%,-1.5
CC(=O)Nc1ccc(NS(=O)(=O)c2ccc3[nH]c(=O)[nH]c3c2)cc1,12.8%,10.1%,3.5,·,0.9,8.4%,0.4

# A different layout for part of the listing above:
SMILES | gsp ag | Sfp PPTase inh | TRPML1 blocker | ClpP mod | TRPV1 potentiator | gsp antag | Menin MLL FP FL
CC(=O)c1cccc(NC(=O)COC(=O)Cc2ccc(Cl)cc2)c1 | 4.7% | · | -8.5 | -1.3% | 0.9 | -4.2% | ·
O=[N+]([O-])c1ccc2c(c1)nc1n2CCN(c2ccccc2)C1 | -0.8% | -8.8% | · | 0.7% | -0.7 | -6.9% | 2.4
O=C(NCCc1ccccc1)Nc1ccc2c(c1)OCO2 | -21.0% | 8.6% | 17.5 | 0.8% | -20.5 | -24.7% | -0.8
CCC1(c2ccc(F)cc2)NC(=O)N(CC(=O)Nc2ccc(C)c(S(=O)(=O)N3CCOCC3)c2)C1=O (stereo not drawn) | 10.0%[15.4 µM] | 15.5% | 26.4 | · | -4.7 | -10.8% | -5.6
CCN(CC)S(=O)(=O)c1ccc(OC)c(NC(=O)c2ccc3c(c2)OCO3)c1 | 26.4%[15.4 µM] | -5.9% | 49.7 | · | -6.3 | -15.2% | -3.3
CN(C)/C=C(\C=O)c1c(Cl)cccc1Cl | -3.2% | 3.1% | 11.2 | -1.0% | 6.1 | 17.0% | -1.5
CCOc1ccccc1OCCCC(=O)Nc1cccc(S(=O)(=O)N2CCOCC2)c1 | -71.1%[inhibitor] | · | 21.5 | 0.1% | 4.7 | 0.1% | ·
